StopGo FLuc – FMDV 2A StopGo reporter, firefly signal; 120,000 tested, 0.23% active; HEK cells with a luciferase reporter of 2A StopGo recoding; Potency, µM (top dose mostly 57.5 µM), inactives show top-dose signal change, negative = less light; active = well fitted falling curve with a large enough effect; inconclusive = small, poorly fitted or top-dose-only effect; inactive = no such curve, though single readings can be large or run the other way; further: nearly all actives have a fitted effect of over 60% in size; overnight with compound
2A Renilla – lowers the Renilla signal of an FMDV 2A StopGo reporter; HEK cells with a luciferase reporter of 2A StopGo recoding; Potency, µM (series often up to 57.5 µM), inactives show at the highest dose signal change, negative = less light; 120,000 tested, 0.32% active; active means well fitted falling curve with a large enough effect; inconclusive means small, poorly fitted or top-dose-only effect; inactive means no such curve, though single readings can be large or run the other way; further: nearly all actives have a fitted effect of over 55% in size; overnight with compound
The depositor's hits bear a star; ? = inconclusive; [ ] = another dose, or the depositor's remark. On the % scale 0 is the no-effect control and ±100 the full control effect; potency means the concentration at half of the fitted maximal effect.

SMILES	StopGo FLuc	2A Renilla
CCC(C)(C)C(=O)N1CCC(C(=O)Nc2cc(C)ccn2)CC1	0%	12%
CCc1nc(NCCCOC)c(C#N)c2c1CCCC2	32%	12%
Cc1ccccc1C(=O)NCCc1c[nH]c2ccc(Cl)cc12	6%	8%
CCN(CC)CCCNC(=O)c1ccc2c(Cl)c3c(nc2c1)CCCC3	-28%	-18%
O=C(Nc1nnc(-c2ccc(Cl)cc2)o1)C1CCN(S(=O)(=O)c2cc(F)ccc2F)CC1	22%	-4%
CCCCc1cc(=O)oc2c(C)c3c(cc12)C=CC1(CCCCC1)O3	-5%	-11%
CCOc1ccc(CCNC(=O)c2ccc(CS(=O)(=O)c3ccccc3C)o2)cc1OCC	?	?
COc1cccc(Nc2c(-c3ccc(O)c(OC)c3)nc3ccc(Cl)cn23)c1	0%	63%[activator]
CCN(C)CC12CC3CC(CC(C3)C1)C2	2%	-16%
O=C(Nc1cccc(C(F)(F)F)c1)c1cccc(NC(=O)c2ccc[n+]([O-])c2)c1	8%	0%

Reformatted: 4 of the compounds above.
Sequence of screens: StopGo FLuc, 2A Renilla
- CCc1nc(NCCCOC)c(C#N)c2c1CCCC2
  32%, 12%
- Cc1ccccc1C(=O)NCCc1c[nH]c2ccc(Cl)cc12
  6%, 8%
- CCN(CC)CCCNC(=O)c1ccc2c(Cl)c3c(nc2c1)CCCC3
  -28%, -18%
- O=C(Nc1nnc(-c2ccc(Cl)cc2)o1)C1CCN(S(=O)(=O)c2cc(F)ccc2F)CC1
  22%, -4%

(next part)
SMILES	StopGo FLuc	2A Renilla
CCOc1ccc(NC(=O)c2c(C)oc3nc(C)nc(N4CCOCC4)c23)cc1	-25%	-11%
CC(C)C[C@@H](N)C(=O)O	-14%[27 µM]	-8%[23.8 µM]
Cc1ccc(Nc2sc(C(=O)c3ccccc3)c(N)c2S(=O)(=O)c2ccccc2)c(C)c1	-10%	4%
CCCCCCCOC(=O)c1c(C)oc2ccc(NS(=O)(=O)c3cccs3)cc12	19%	29%
O=c1ccc2ccc(OS(=O)(=O)c3ccc4c(c3)CCCC4)cc2o1	0%	-7%[1.06 µM]
COc1ccc(/C=C/C(=O)c2ccc(C3CCCCC3)cc2)cc1O	-5%	4%
Cc1ccc(-c2cc(C(=O)Oc3ccccc3)c3cc(C)ccc3n2)cc1	-6%	-10%
CCOC(=O)C1CCCN(S(=O)(=O)c2ccc3[nH]c(=O)oc3c2)C1 (stereo not given)	13%	0%
Cc1ccc(SC(Sc2ccc(C)cc2)=C(Cl)/C=N/O)cc1	-21%	26%[1.06 µM]
CCc1nnc2c(NCCc3ccc(OC)c(OC)c3)nc3ccccc3n12	16%	-3%
Cc1ccc(C)c(-c2cc(C(=O)O)c3ccccc3n2)c1	33%[activator]	-19%
CCCCCn1nc(C(=O)OCc2ccc(C(=O)OC)cc2)c2ccccc2c1=O	15%	-4%
COc1cccc(C2=NS(=O)(=O)N(C)C(C(=O)N3CCN(c4ccc(F)cc4)CC3)=C2)c1	-23%	-3%
Cc1ccc(Nc2nc(N)c(C#N)c(CC#N)c2C#N)c(C)c1	43%[activator]	9%
CCOc1ccc(NC(=O)c2cc(C)nc3c2c(C)nn3-c2cccc(F)c2)cc1	2%	1%
O=C(NCc1ccc(Cl)cc1)OCc1ccccc1	126%[activator]	11%
COc1cc2ccccc2cc1C(=O)Nc1ccc2oc(-c3cccnc3)nc2c1	30%	8%
CCOc1ccc(NC(=O)CSc2nnc(CC)c(CC)n2)cc1	-6%	-9%
COc1ccccc1CNc1nccn(-c2ccc(F)cc2)c1=O	45%[activator]	20%
Cc1noc(C)c1COc1ccc(CC(=O)N2CCCN(C)CC2)cc1	6%	-7%
CCOC(=O)c1ccc(N2C(=O)c3n[nH]c(C)c3C2c2ccc(CC)cc2)cc1 (stereo not given)	-16%	-3%
Cc1ccc2oc(C(=O)N(Cc3ccc(N(C)C)cc3)CC3CCCO3)c(C)c2c1 (stereo not given)	21%	119%[activator]
Cc1cc(C)cc(NS(=O)(=O)c2ccc3[nH]cc(C(=O)N4CCCCCC4)c(=O)c3c2)c1	-6%	3%
CCOC(=O)c1cc(-c2ccccc2)n(-c2cccc(C(=O)Nc3ccc(OCC)cc3)c2)c1C	-13%	?
CCC(C)[C@H](NC(=O)NCc1ccccc1)C(=O)O (stereo not given in full)	1%	4%
CN1C(=S)SC(C)(C)C1/[N+]([O-])=C/c1ccccc1 (stereo not given)	-1%	-5%
Cc1nc2c(c(C)c1CCC(=O)N1CCN(c3ccccc3)CC1)c(=O)n(C)c(=O)n2C	-16%	-19%
Cc1c(C(=O)N2CCCC2)oc2c1-c1nn(CC(=O)NCc3ccccc3Br)cc1CC2	-3%	12%
O=c1cc(-c2ccccc2)c2cc(Cl)c3c(c2o1)CN(Cc1ccccc1)CO3	-22%	-12%
CC1(C)CN=C(SCc2ccc(C(C)(C)C)cc2)NC1	-9%	-7%

A draw from above in order of number of heavy atoms, highest first:
SMILES	StopGo FLuc	2A Renilla
CCOc1ccc(CCNC(=O)c2ccc(CS(=O)(=O)c3ccccc3C)o2)cc1OCC	?	?
CCCCCn1nc(C(=O)OCc2ccc(C(=O)OC)cc2)c2ccccc2c1=O	15%	-4%
CCCCCCCOC(=O)c1c(C)oc2ccc(NS(=O)(=O)c3cccs3)cc12	19%	29%

Continuation:
SMILES	StopGo FLuc	2A Renilla
CC(=O)N1CCc2c(sc3c2c(=O)n(-c2ccccc2)c(=O)n3CC(=O)Nc2ccccc2)C1	31%[activator]	1%
CCOC(=O)c1c(C)oc2nc(C)nc(NCc3cccc(Cl)c3)c12	-10%	-11%
CCOC(=O)N1CCc2c(sc3c2c(=O)n(CCc2ccccc2)c(=O)n3Cc2ccc(C)cc2C)C1	-3%	-11%
CC(C)(C)NC(=O)NC(=O)CSc1nc2ccccc2[nH]1	22%	3%
CC(=O)c1c(OCCC(C)C)ccc2c(C)cc(=O)oc12	0%	22%
Cc1ccc(Nc2c(-c3cccnc3)nc3ccc(Br)cn23)cc1	-6%	-8%
CCn1c(SCC(=O)Nc2cccc3ccccc23)nc2nc3c(cc2c1=O)COC(C)(C)C3	-7%	-17%
O=C(c1cc(=O)c2ccccc2o1)N(Cc1ccccc1)Cc1ccccc1	-5%	65%[activator]
COc1ccc(-c2cc(C(=O)N3CCC(C(N)=O)CC3)c3ccccc3n2)cc1OC	61%[activator]	195%[activator]
CCn1c(CN2CCCCC2)nc2cc(NC(=O)COc3cc(C)ccc3C(C)C)ccc21	-20%	-13%
CCCCn1nc(C(=O)N2CCC(n3c(=O)[nH]c4ccccc43)CC2)c2ccccc2c1=O	16%	34%[activator]
Cc1c(C(=O)Nc2cccc(C(F)(F)F)c2)oc2ccc(S(=O)(=O)N(C)C3CCCCC3)cc12	-11%	-10%
CCOc1ccccc1N1CC(c2nc3ccccc3n2CCCOc2ccccc2)CC1=O (stereo not given)	-8%	-8%
CCN(CC)CC(C)CNC(=O)c1cc(-c2ccc(Br)s2)nc2ccccc12 (stereo not given)	-6%	15%
CCOc1cccc(NC(=O)c2ccccc2)c1	126%[activator]	4%
CCS(=O)(=O)N1CCC(NC(=O)c2ccccc2C(=O)c2ccc(Cl)cc2)CC1	6%	17%
O=S(=O)(c1ccc(-c2csc(Nc3cccc4ccccc34)n2)cc1)N1CCCCC1	9%	-5%
NC(=O)c1ccc(NC(=O)C2=C(c3ccccc3)SCCO2)cc1	-7%	-3%
O=C(NCC1(c2ccccc2)CC1)c1cccc(S(=O)(=O)N2CCCCC2)c1	25%	21%
CN(Cc1ccccc1)S(=O)(=O)c1ccc(Cl)c(C(=O)Nc2nnc(C3CC3)s2)c1	-19%	-3%
Cc1ccc(-c2cnoc2NC(=O)CSc2nc(-c3cccc(Cl)c3)cc(=O)[nH]2)cc1	14%	11%
Cc1ccc(-c2nc(S(=O)(=O)c3ccc(F)cc3)c(N3CCN(c4ccccc4)CC3)o2)cc1	-14%	-4%
CCOC(=O)c1cnc2ccccc2c1N1CCCC(CO)C1 (stereo not given)	19%	16%
O=C(NC1CCc2ccccc21)c1ccccn1 (stereo not given)	13%	25%
CCOc1ccc(N(CC(=O)Nc2cc(OC)cc(OC)c2)S(=O)(=O)c2c(C)[nH]c(=O)[nH]c2=O)cc1	-4%	-2%
COc1ccc(OC)c(NC(=O)CSC2=Nc3ccccc3C3=NC(CC(=O)NCc4ccc5c(c4)OCO5)C(=O)N23)c1 (stereo not given)	-9%	31%[activator]
COc1ccc(NC(=O)CSc2c(C(C)C)cnc3c2c(=O)n(C)c(=O)n3C)c(OC)c1	-18%	23%
CCOc1ccc(-n2c(C)nc3c(cnn3-c3ccc(C)cc3)c2=O)cc1	-7%	1%
Cc1ccc(C)c(NS(=O)(=O)c2ccc3c(c2)CCCN3C(=O)C2CCC2)c1	?	10%
CC(C)OCCCn1c(SCC(N)=O)nc2c(sc3ccccc32)c1=O	35%[activator]	40%[activator]
CCCCOc1ccc(CNC(=O)CCCN2C(=O)CSc3c2c(C)nn3-c2ccccc2)cc1	?	?
CC(C)(C)c1cc(NC(=O)c2ccc(OC3CCCC3)cc2)no1	81%[activator]	6%
CCOC(=O)c1nc2ccccc2nc1NCCc1ccc(OCC)c(OCC)c1	1%	23%
CCOc1ccc(CN(C(=O)c2cc3ccccc3oc2=O)C2CCS(=O)(=O)C2)cc1 (stereo not given)	81%[activator]	14%
Cc1ccc(-c2cc(C(=O)OCC(=O)NCC(C)C)c3ccccc3n2)o1	113%[activator]	7%
COC(=O)[C@H](C(C)C)N(CCCc1cn(Cc2ccc(C)cc2)nn1)S(=O)(=O)c1ccc(F)cc1Br	-2%	0%
N#C/C(=C\c1ccc(-c2cccc(C(=O)O)c2)o1)C(=O)N1CCOCC1	184%[activator]	10%
Nc1c(F)cc(F)cc1-c1ccccc1	-6%	2%
O=C(Nc1cccc2cccnc12)c1ccc(N2CCCC2)c([N+](=O)[O-])c1	10%	0%
O=C(OCc1ccc(Br)cc1)c1ccccc1[N+](=O)[O-]	35%[activator]	-7%
O=c1[nH]c(-n2cccc2)c(-c2c(-c3cccc(Cl)c3)[nH]c3[nH]c(=O)[nH]c(=O)c23)c(=O)[nH]1	4%	-6%
Cc1nnc2ccc(SCC(=O)Nc3ccc(Cl)cc3Cl)nn12	14%	1%
Cc1ccc(C)c(NC(=O)N2CCC(N3CCN(Cc4ccc(F)cc4)C(=O)C3=O)CC2)c1	-23%	-21%
OCc1cnc(SCc2ccc(F)cc2)n1Cc1ccc(F)cc1	19%	-8%
N#Cc1ccc(NC(=O)COCc2cc(-c3ccco3)on2)cc1	-13%	-3%
CC(Nc1nc(-c2ccc(CNC(=O)C(C)(C)C)s2)cs1)c1ccccc1 (stereo not given)	-8%	10%
Cc1ccc(S(C)(=O)=O)cc1C(=O)Nc1ccccc1N1CCOCC1	-7%	-10%
CC(=O)N1CCN(S(=O)(=O)c2cccc(C(=O)N(C)Cc3ccccc3N3CCCC3)c2)CC1	6%	13%
O=C(NCC1CC1)c1cc(-c2ccncc2)nc2ccccc12	-1%	-4%
O=C(NCc1ccccc1Cl)C1CCCN(c2ncnc3nc[nH]c23)C1 (stereo not given)	27%	14%

In a second layout: entries from further up.
| mol | StopGo FLuc | 2A Renilla |
| --- | --- | --- |
| CC(Nc1nc(-c2ccc(CNC(=O)C(C)(C)C)s2)cs1)c1ccccc1 (stereo not given) | -8% | 10% |
| Cc1ccc(C)c(NC(=O)N2CCC(N3CCN(Cc4ccc(F)cc4)C(=O)C3=O)CC2)c1 | -23% | -21% |
| Cc1nnc2ccc(SCC(=O)Nc3ccc(Cl)cc3Cl)nn12 | 14% | 1% |

Going on with the list.
SMILES	StopGo FLuc	2A Renilla
Cc1ccc(CN(C)CC(=O)NC(C)c2ccccc2C)o1 (stereo not given)	-4%	0%
Cc1c(C(=O)N2CCC(c3nc4ccccc4s3)CC2)oc2cc(Br)ccc12	-11%	-4%
COc1ccc(CN2CCN(S(=O)(=O)c3ccc(NC(C)=O)cc3)CC2)c(OC)c1OC	-12%	3%
CC(C)NC(=O)Nc1cccc(-c2noc(-c3cccs3)n2)c1	0%	8%
CCC(C(=O)OC)n1nnc2sc(-c3ccccc3)cc2c1=O (stereo not given)	105%[activator]	16%
CCc1cccc(C)c1NC(=O)C(CC)CC	-6%	3%
CC(C)(C)C1CCC(C(=O)NN)CC1 (stereo not given)	17%	12%
O=C(Nc1ccccc1-c1nc(-c2ccco2)no1)c1ccc(Br)o1	23%	15%
CCOCCCNC(=O)C(NC(=O)c1ccc(CC)cc1)C(C)C (stereo not given)	-12%	2%
COc1ccc(CCN2C(=O)c3oc4cc(C)cc(C)c4c(=O)c3C2c2ccccc2F)cc1OC (stereo not given)	3%	-8%
Cc1c(Cl)cccc1NC(=O)Nc1nnc(N2CCCCCC2)s1	-14%	-6%
CC(=O)c1ccc(NC(=O)CN2C(=O)CCc3ccccc32)cc1	11%	-5%
CCn1c(=O)n(CC2CCC(C(=O)NC(C)C)CC2)c(=O)c2sccc21 (stereo not given)	-18%	4%
Cc1ccccc1Nc1nc(-c2cc3cc(Br)ccc3oc2=O)cs1	1%	1%
CC(Oc1ccc(Cl)cc1Cl)C(=O)NC(C)c1ccccc1 (stereo not given)	-11%	0%
CC(=C/C(=O)O)/C=C/c1ccco1	0%	0%
O=C1/C(=C\c2cccs2)Sc2ccccc21	20%	12%
COc1ccc(N2CCN(C(=O)C3CCN(S(=O)(=O)c4cnc[nH]4)CC3)CC2)cc1	4%	-10%
Cn1cc(C(=O)N2CCN(S(=O)(=O)c3ccccc3F)CC2)c2ccccc21	-10%	0%
C=Cc1ccc(CN2C(=O)N(c3ccc(CC)cc3)S(=O)(=O)c3ccccc32)cc1	-7%	14%

Source: PubChem
